Bioassay records as filed in PubChem BioAssay.
GIV-Gai inh = inhibitors of GIV GBA-motif binding to rat Galpha-i3. P08753. Galpha-i3/FITC-GIV peptide fluorescence polarization, 90 min; active compounds read low; scaled: aluminum fluoride 0%, vehicle 100%. percent of control (FP), % (concentration not given with the values). 0.42% of 210,000 active;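 active = replicate mean at 85% of control or lower, very high polarization wells dropped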;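 also: wells of about 15 µL received 100 nL stock; the first replicate is given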
Target sequence (P08753 whole entry, looked up): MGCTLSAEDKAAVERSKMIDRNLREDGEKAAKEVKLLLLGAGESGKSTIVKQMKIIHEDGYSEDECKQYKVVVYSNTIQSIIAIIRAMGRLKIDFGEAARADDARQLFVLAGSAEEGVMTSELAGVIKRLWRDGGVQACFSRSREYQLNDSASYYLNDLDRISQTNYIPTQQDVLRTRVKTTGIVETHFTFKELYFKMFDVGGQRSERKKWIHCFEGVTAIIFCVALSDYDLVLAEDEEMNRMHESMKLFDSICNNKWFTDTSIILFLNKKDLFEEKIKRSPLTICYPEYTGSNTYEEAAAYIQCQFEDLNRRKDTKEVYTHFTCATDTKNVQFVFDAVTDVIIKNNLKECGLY
HCMV NEC inh = cytomegalovirus nuclear egress complex inhibition; HTRF UL50-UL53 interaction, normalized percent inhibition; inhibition, % (test concentration not listed); 0.15% of 190,000 active;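 active = both replicates at 50% or more, plus weaker picks with an unusually low signal ratio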;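 also: stock transfer was 100 nL into about 20 µL; 0% = negative control wells and 100% = wells with untagged competitor protein; inactives centre near -12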
Sa growth inh = blocks Staphylococcus aureus growth | AID 720641 | S. aureus RN4220 growth, OD600, 20 h, 42 °C; active compounds read low | relative growth, % (no concentration beside the values) | 0.53% of 170,000 active;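 active = growth at 42 °C up to 50% and 20 or more points under that at 30 °C, or under 10% at both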;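 also: 300 nL library stock went into each well; scaled to the means of positive and negative controls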
Sa growth inh second temp = further read-out of Sa growth inh, marked with its call; relative growth, %; measured here: growth at 30 °C;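 optical density after 20 h as mean of two plates; 100% = untreated growth and lower means inhibition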
Numbers without * were called inactive; & = joins results of further samples.

`O=c1ccc2cc(S(=O)(=O)n3ccnc3)ccc2o1` gave GIV-Gai inh 106.1, HCMV NEC inh -4.8, Sa growth inh 104.6 and Sa growth inh second temp 96.6.
For COC(=O)CN1C(=O)CSc2ccc(S(=O)(=O)Nc3ccc(C(C)=O)cc3)cc21 the results were GIV-Gai inh 104.4, Sa growth inh 109.3 and Sa growth inh second temp 88.2.
COc1ccc(CN2CCN(Cc3ccc4c(c3)OCO4)CC2)cc1OC was read as GIV-Gai inh 105.5 and HCMV NEC inh -1.7.
`OCCCNCc1cc(Cl)c2c(c1)OCCCO2` gave HCMV NEC inh -33.6, Sa growth inh 86.8 and Sa growth inh second temp 95.5.
N#CCCN1C(=O)C2CC=CCC2C1=O (centres undefined) was read as GIV-Gai inh 96.9 and HCMV NEC inh 6.0.
For CCc1ccc(NC(=O)Cn2c(=O)n(CCCC(=O)NCc3ccccc3Cl)c(=O)c3ccccc32)cc1 the results were GIV-Gai inh 108.8, HCMV NEC inh -4.2, Sa growth inh 97.6 and Sa growth inh second temp 104.2.
COC(=O)C1=C(Nc2ccc(OC(=O)c3cccc(C(F)(F)F)c3)cc2)CSC1 was read as GIV-Gai inh 104.4, HCMV NEC inh -8.6, Sa growth inh 103.6 and Sa growth inh second temp 89.0.
For CCCc1cc(=O)[nH]c2nnc(SCC)n12 the results were GIV-Gai inh 95.5, Sa growth inh 122.3 and Sa growth inh second temp 88.0.
Screening Cc1onc(-c2ccccc2)c1CNC(=O)c1ccccc1C(=O)O returned GIV-Gai inh 108.0, HCMV NEC inh -25.0, Sa growth inh 98.0 and Sa growth inh second temp 83.6.
Screening Cc1ccc(C)c(C2C(C#N)=C(N)OC3=C2C(=O)CCC3)c1 (centres undefined) returned GIV-Gai inh 108.9, HCMV NEC inh -20.8, Sa growth inh 106.2 and Sa growth inh second temp 96.0.
CCN(CC)C(=O)CN1C(=O)COCC1=O was read as GIV-Gai inh 105.7, HCMV NEC inh 4.3, Sa growth inh 115.0 and Sa growth inh second temp 103.2.
For CCC(C)N(C(=O)Nc1cc(C)ccc1OC)C(C)CC (centres undefined) the results were GIV-Gai inh 100.9, HCMV NEC inh -24.5, Sa growth inh 93.5 and Sa growth inh second temp 89.9.
Screening Cc1onc(-c2c(F)cccc2Cl)c1C(=O)NC1C2CC3CC(C2)CC1C3 (centres undefined) returned GIV-Gai inh 100.5, HCMV NEC inh -13.1, Sa growth inh 92.4 and Sa growth inh second temp 78.0.
`Cn1c(C(=O)N2CCN(c3ccccn3)CC2)cc2sccc21` gave GIV-Gai inh 105.4 and HCMV NEC inh 7.4.
For CC(=O)c1cccc(NC(=O)CN2C(=O)CN(C)C(=O)c3ccccc32)c1 the results were GIV-Gai inh 102.7, Sa growth inh 100.9 and Sa growth inh second temp 91.3.

3 neighbouring compounds out of the list so far, for reference:
Screening Cc1onc(-c2c(F)cccc2Cl)c1C(=O)NC1C2CC3CC(C2)CC1C3 (centres undefined) returned GIV-Gai inh 100.5, HCMV NEC inh -13.1, Sa growth inh 92.4 and Sa growth inh second temp 78.0.
`Cn1c(C(=O)N2CCN(c3ccccn3)CC2)cc2sccc21` gave GIV-Gai inh 105.4 and HCMV NEC inh 7.4.
For CC(=O)c1cccc(NC(=O)CN2C(=O)CN(C)C(=O)c3ccccc32)c1 the results were GIV-Gai inh 102.7, Sa growth inh 100.9 and Sa growth inh second temp 91.3.

More results follow:
For COc1cc(OC)cc(C(c2[nH]c(C)nc2O)C(C#N)C#N)c1 (centres undefined) the results were HCMV NEC inh 15.0, Sa growth inh 91.4 and Sa growth inh second temp 90.6.
`CCOc1ccc(CCNC(=O)Nc2ccc3snnc3c2)cc1` gave GIV-Gai inh 99.9, Sa growth inh 114.6 and Sa growth inh second temp 87.1.
CC(C)c1cc(C(=O)NCCN2CCOCC2)no1 was read as GIV-Gai inh 101.3 and HCMV NEC inh -32.1.
`Cc1ccc(S(=O)(=O)NN2C(=O)S/C(=C/c3ccccc3)C2=S)cc1` gave GIV-Gai inh 102.6, Sa growth inh 52.3 and Sa growth inh second temp 12.6.
For O=C(Cn1nc2n(Cc3ccccc3)c(=O)c3ccccc3n2c1=O)Nc1ccc2c(c1)OCO2 the results were GIV-Gai inh 97.7 and HCMV NEC inh -22.1.
For CCOC(=O)C(C)Sc1ccc2nnc(CCNS(=O)(=O)c3ccc(C)cc3)n2n1 (centres undefined) the results were GIV-Gai inh 100.7, Sa growth inh 126.2 and Sa growth inh second temp 87.1.
`O=C(CSc1ccc2ccccc2c1)N1CCN(c2ccccc2F)CC1` gave HCMV NEC inh 9.4, Sa growth inh 88.4 and Sa growth inh second temp 97.4.
Screening Cc1ccc(Cn2cc(C(=O)c3ccc(F)cc3)c(=O)c3cc4c(cc32)OCO4)cc1 returned GIV-Gai inh 102.7, HCMV NEC inh -17.2, Sa growth inh 73.2 and Sa growth inh second temp 68.2.
CCOC(=O)Nc1ccc2c(c1)N(C(=O)CCN(C)C)c1ccccc1S2 was read as GIV-Gai inh 97.0, Sa growth inh 84.8 and Sa growth inh second temp 96.6.
COc1ccc(CCNC(=O)C2(c3cccs3)CCOCC2)cc1 was read as GIV-Gai inh 97.2, Sa growth inh 94.0 and Sa growth inh second temp 98.1.
`Cc1cc2oc(C(=O)NC3CCS(=O)(=O)C3)cc(=O)c2cc1C` (centres undefined) gave GIV-Gai inh 96.4, HCMV NEC inh -30.9, Sa growth inh 103.1 and Sa growth inh second temp 93.5.
Screening Cc1cc(Nc2cccc(C(F)(F)F)c2)nc2ccc(NC(=O)c3ccc(=O)[nH]c3)cc12 returned GIV-Gai inh 97.3, Sa growth inh 122.5 and Sa growth inh second temp 82.5.
For CCOC(=O)c1c(NC(=O)CSc2cn(CCNC(=O)c3cccc(C(F)(F)F)c3)c3ccccc23)sc2c1CCC2 the results were GIV-Gai inh 104.6, HCMV NEC inh -2.0, Sa growth inh 102.7 and Sa growth inh second temp 92.0.
`O=C(O)CCCOc1cccc2cccnc12` gave GIV-Gai inh 101.7, HCMV NEC inh -35.9, Sa growth inh 99.8 and Sa growth inh second temp 87.9.
COc1cc2ccccc2cc1C(=O)Nc1ccc2oc(-c3cc(Br)ccc3Cl)nc2c1 was read as GIV-Gai inh 98.8, HCMV NEC inh -33.6, Sa growth inh 101.1 and Sa growth inh second temp 87.0.
`c1coc(-c2nnc(-c3cc4c(s3)CCCC4)o2)c1` gave HCMV NEC inh -53.2, Sa growth inh 76.2 and Sa growth inh second temp 84.1.
COc1ccc(C=Nc2ccc(C(N)=O)cc2)cc1 was read as GIV-Gai inh 105.7, Sa growth inh 93.5 and Sa growth inh second temp 81.5.
For CCOC(=O)c1noc2ncn(CC(=O)O)c(=O)c12 the results were GIV-Gai inh 105.2, HCMV NEC inh -9.9, Sa growth inh 84.8 and Sa growth inh second temp 88.0.
`CCC1Oc2ccc(C)cc2N(CC(=O)N2CCN(c3ccccc3OC)CC2)C1=O` (centres undefined) gave GIV-Gai inh 104.3, Sa growth inh 117.5 and Sa growth inh second temp 92.6.
For O=C(Nc1cccc(-c2noc(C3CCC3)n2)c1)Nc1ccccc1Cl the results were GIV-Gai inh 108.0 and HCMV NEC inh 0.2.
`Cc1ccc(C)c(N2CCN(S(=O)(=O)c3csc(C(N)=O)c3)CC2)c1` gave GIV-Gai inh 104.9, Sa growth inh 111.1 and Sa growth inh second temp 74.5.
CCOc1cc2c(cc1OCC)C1CC(=O)N(c3cccc(C)c3)C(=O)N1CC2 (centres undefined) was read as GIV-Gai inh 98.9&104.1, HCMV NEC inh -3.4&-17.4, Sa growth inh 91.2 and Sa growth inh second temp 95.9.
Screening COC(=O)CN1C(=O)C(C)(C)c2cc(S(=O)(=O)Nc3ccc(Br)cc3F)ccc21 returned GIV-Gai inh 103.8, Sa growth inh 100.7 and Sa growth inh second temp 80.2.
O=C(c1ccc2c(c1)sc1nc(-c3ccccc3)cn12)N1CCCCC1 was read as GIV-Gai inh 106.5, Sa growth inh 97.1 and Sa growth inh second temp 41.8.
COC(=O)C1=CC(C(=O)c2ccccc2)=NN(c2ccccc2)C1C(=O)OC (centres undefined) was read as GIV-Gai inh 146.5, HCMV NEC inh -33.0, Sa growth inh 88.2 and Sa growth inh second temp 79.7.
c1ccc(-c2nc(C34CC5CC(CC(C5)C3)C4)cs2)cc1 was read as GIV-Gai inh 103.7, Sa growth inh 95.2 and Sa growth inh second temp 93.6.
c1csc(-c2nnco2)c1 was read as GIV-Gai inh 107.5, HCMV NEC inh 3.3, Sa growth inh 99.6 and Sa growth inh second temp 89.9.
Screening COC(=O)c1cc2oc3ccccc3c2n1CC(=O)Nc1cccc(SC)c1 returned GIV-Gai inh 104.7, HCMV NEC inh -9.7, Sa growth inh 103.2 and Sa growth inh second temp 82.5.
CCC(C(=O)N1CC2(C)CC1CC(C)(C)C2)N1C(=O)c2ccccc2C1=O (centres undefined) was read as GIV-Gai inh 99.7, HCMV NEC inh -13.9, Sa growth inh 115.5 and Sa growth inh second temp 88.5.
Screening COC(=O)c1ccc(NC(=O)CSc2nnc3c4ccccc4n(C(C)C)c3n2)cc1 returned GIV-Gai inh 106.4, HCMV NEC inh -25.4, Sa growth inh 98.8 and Sa growth inh second temp 89.0.

Ordered by SMILES length (rising): some entries from above
For O=C(Nc1cccc(-c2noc(C3CCC3)n2)c1)Nc1ccccc1Cl the results were GIV-Gai inh 108.0 and HCMV NEC inh 0.2.
Screening COC(=O)c1cc2oc3ccccc3c2n1CC(=O)Nc1cccc(SC)c1 returned GIV-Gai inh 104.7, HCMV NEC inh -9.7, Sa growth inh 103.2 and Sa growth inh second temp 82.5.
`CCC1Oc2ccc(C)cc2N(CC(=O)N2CCN(c3ccccc3OC)CC2)C1=O` (centres undefined) gave GIV-Gai inh 104.3, Sa growth inh 117.5 and Sa growth inh second temp 92.6.

(next part)
`Cc1ccc(CC(C(=O)Nc2ccc(F)cc2)C(C)C(=O)O)cc1` (centres undefined) gave GIV-Gai inh 100.5, HCMV NEC inh 12.6, Sa growth inh 116.8 and Sa growth inh second temp 98.2.
`CCc1ccc(NC(=O)C(C)OC(=O)C2CCC(=O)N2)cc1` (centres undefined) gave HCMV NEC inh -13.9, Sa growth inh 87.6 and Sa growth inh second temp 95.9.
Screening CCCCn1c(SCc2cc(=O)n3ccsc3n2)nc2cc(S(N)(=O)=O)ccc21 returned HCMV NEC inh -14.0, Sa growth inh 92.9 and Sa growth inh second temp 80.3.
CCOc1c(C)cnc2c1c(=O)n(CC)c(=O)n2C was read as GIV-Gai inh 100.6 and HCMV NEC inh 11.2.
Cc1ccc(-c2nn(C(C)C(=O)Nc3cccc(C)c3C)c(=O)c3c2CCCC3)cc1S(N)(=O)=O (centres undefined) was read as GIV-Gai inh 108.1 and HCMV NEC inh -25.1.
Screening NC(=O)CSc1ccc2ccccc2n1 returned GIV-Gai inh 103.2, Sa growth inh 95.7 and Sa growth inh second temp 83.7.
For Cc1nn(Cc2ccc(C(=O)NC(C)(C)C)o2)c(C)c1Br the results were GIV-Gai inh 101.6, HCMV NEC inh -6.2, Sa growth inh 111.2 and Sa growth inh second temp 84.6.
`O=C1CC(Nc2ccc3c(c2)OCO3)C(=O)N1C1CCCCC1` (centres undefined) gave GIV-Gai inh 98.9, HCMV NEC inh -36.9, Sa growth inh 118.1 and Sa growth inh second temp 95.6.
Cc1cc(C)c2oc(-c3cccc(NC(=O)c4ccco4)c3)nc2c1 was read as GIV-Gai inh 113.0, HCMV NEC inh 2.6, Sa growth inh 94.5 and Sa growth inh second temp 96.0.
`COc1cc2c(cc1OC)CN(CC(=O)NC(=O)NC1CCCCC1)CC2` gave HCMV NEC inh -15.9, Sa growth inh 95.4 and Sa growth inh second temp 86.8.
Screening CCCN(C(=O)Cn1c(=O)oc2ccccc21)c1ccccc1OC returned GIV-Gai inh 95.8, HCMV NEC inh 0.0, Sa growth inh 109.2 and Sa growth inh second temp 85.8.
Screening CCc1cc(C(=O)Cc2ccc3c(c2)OCCCO3)c(O)cc1OC returned GIV-Gai inh 102.2, HCMV NEC inh -18.1, Sa growth inh 83.2 and Sa growth inh second temp 89.9.
Screening Cc1cc(C)cc(NC(=O)Oc2ccccc2N2CCCCC2)c1 returned GIV-Gai inh 98.4, HCMV NEC inh -10.2, Sa growth inh 91.4 and Sa growth inh second temp 93.3.
For Cc1ccc(-c2c3c(=O)n(C)c(=O)n(C)c3cn2-c2cc(C)ccc2O)cc1 the results were GIV-Gai inh 99.9, HCMV NEC inh -10.0, Sa growth inh 109.6 and Sa growth inh second temp 89.9.
For COc1ccc(S(=O)(=O)[C@H]2CS(=O)(=O)C[C@@H]2N2CCc3ccccc3C2)cc1 the results were GIV-Gai inh 107.0 and HCMV NEC inh 3.8.
`Cc1cc(C)c(NC(=O)Cn2c(=O)n(CCc3ccccc3)c(=O)c3ccccc32)c(C)c1` gave GIV-Gai inh 100.9, HCMV NEC inh -10.5, Sa growth inh 105.2 and Sa growth inh second temp 88.6.
Screening COc1cc(NC(=O)Nc2cccc3ccccc23)ncn1 returned GIV-Gai inh 107.9, HCMV NEC inh -17.2, Sa growth inh 107.1 and Sa growth inh second temp 99.5.
Cc1cccc(NC(=O)c2cnn3c2NC(C(=O)O)=CC3c2ccccc2Br)c1 (centres undefined) was read as GIV-Gai inh 102.9 and HCMV NEC inh -41.4.
Cc1ccc(N(CC(C)C)S(=O)(=O)c2nnc(NC(=O)c3cccs3)s2)cc1 was read as GIV-Gai inh 103.2, HCMV NEC inh -29.9, Sa growth inh 75.9 and Sa growth inh second temp 65.2.
For NC(=O)c1cccc2c1-c1ccccc1/C2=N/O the results were GIV-Gai inh 102.4, HCMV NEC inh -67.4, Sa growth inh 112.6 and Sa growth inh second temp 66.4.
